Vaccinia inh – blocks a specific stage of Vaccinia orthopoxvirus infection. Vaccinia-infected cells, mCherry/Venus stage reporter fluorescence; stronger effect = lower value; some inactives read as strong as hits. activity change (mCherry), % (test concentration not listed). 89,000 tested, 0.01% active;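 active = mCherry past -33% and 40 or more points under the early reporter, replicates agreeing; inconclusive = past -33% without that gap or agreement; tested in A549 cells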;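 also: scaled between vehicle wells and reference inhibitor wells; 23 nL library stock went into each well; one replicate is shown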
Vaccinia inh Venus – second read-out of Vaccinia inh, no call of its own (marks repeat the call); activity change (Venus), %; measured here: Venus reporter, other viral stage;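 negative = less Venus signal; first of two replicates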
An asterisk follows results filed as active; ? = inconclusive; · = no result given.

SMILES	Vaccinia inh	Vaccinia inh Venus
Cc1ccc(S(=O)(=O)Nc2ccc3c(c2)C(=O)N([C@H](C)CO)C[C@H](C)[C@H](CN(C)CC2CCCCC2)OCCCC[C@H](C)O3)cc1	?	·
O=C(C[C@H]1C[C@@H]2c3cc(NC(=O)CC4CC4)ccc3O[C@@H]2[C@@H](CO)O1)NCc1cccc(F)c1	-7.3	1.4
C[C@@H]1CCCCO[C@@H](CN(C)S(=O)(=O)c2ccc(F)cc2)[C@H](C)CN([C@H](C)CO)C(=O)c2cc(NS(C)(=O)=O)ccc2O1	-29.2	-20.2
N#C[C@H]1[C@H](c2ccc(C#CC3(O)CCCC3)cc2)[C@H](CO)N1C(=O)C1CCC1	6.6	-0.1
C[C@@H]1CN([C@@H](C)CO)C(=O)Cc2cc(NC(=O)Nc3ccc(C(F)(F)F)cc3)ccc2O[C@H]1CN(C)C	-30.4	-10.7
C[C@@H]1CN([C@@H](C)CO)C(=O)c2cc(C#CC3(O)CCCC3)cnc2O[C@@H]1CN(C)Cc1ccccc1	15.5	12.3
CC(C)CC#Cc1cnc2c(c1)C(=O)N([C@H](C)CO)C[C@H](C)[C@H](CN(C)Cc1cncnc1)O2	-3.2	-0.5
C[C@@H]1CN([C@@H](C)CO)C(=O)c2cc(C#CCN(C)C)cnc2O[C@H]1CN(C)Cc1cccc(C(=O)O)c1	10.2	10.7
COc1cccc(C#Cc2ccc3c(c2)O[C@@H](CN(C)C)[C@@H](C)CN([C@@H](C)CO)S3(=O)=O)c1	?	·
COC(=O)[C@@H]1[C@@H](CO)[C@@H]2Cn3c(ccc(-c4ccccc4F)c3=O)[C@H]1N2C(C)=O	9.9	18.9
C[C@@H]1CN([C@H](C)CO)C(=O)c2cc(NS(=O)(=O)c3ccc(F)cc3)ccc2O[C@@H](C)CCCCO[C@H]1CN(C)S(=O)(=O)c1cccs1	-34.4	-23.1
O=C(Nc1ccc(F)cc1)N1CC(=O)N2[C@H](CO)[C@@H](c3ccc(Br)cc3)[C@H]2C1	4.4	1.2
O=C(C[C@H]1C=C[C@@H](NC(=O)Nc2ccccc2F)[C@@H](CO)O1)NCc1ccc(Cl)cc1	6.0	-3.5
Cc1noc(C)c1S(=O)(=O)Nc1ccc2c(c1)C(=O)N([C@H](C)CO)C[C@H](C)[C@@H](CN(C)C(=O)Nc1ccccc1)OCCCC[C@H](C)O2	-4.0	-12.0
C[C@@H]1CN([C@@H](C)CO)C(=O)c2cc(-c3ccc(C#N)cc3)cnc2O[C@@H]1CN(C)C(=O)c1ccccc1	7.9	4.6
O=C(Nc1ccccc1F)N[C@@H]1CC[C@@H](CC(=O)N2CCCCC2)O[C@H]1CO	1.2	-0.1
COc1ccc(-c2cnc3c(c2)C(=O)N([C@@H](C)CO)C[C@H](C)[C@H](CN(C)S(C)(=O)=O)O3)cc1	32.1	37.2
O=C(CC1CC1)Nc1ccc2c(c1)[C@@H]1C[C@@H](CC(=O)NC3CCCC3)O[C@@H](CO)[C@@H]1O2	3.4	-1.0
COc1ccc(OC(=O)N(C)C[C@H]2OCc3cnnn3CCCC(=O)N([C@H](C)CO)C[C@H]2C)cc1	20.2	13.0
O=C(C[C@H]1CC[C@@H]2[C@H](COC[C@H](O)CN2C(=O)C2CC2)O1)NCc1ccncc1	0.6	5.4
CC(C)NC(=O)N(C)C[C@@H]1Oc2ccc(NC(=O)C3CCCCC3)cc2CC(=O)N([C@@H](C)CO)C[C@@H]1C	10.8	11.0
CCCNC(=O)N[C@@H]1CC[C@@H](CC(=O)NC2CCCCC2)O[C@H]1CO	6.8	10.7
CN(C)C(=O)C[C@@H]1C=C[C@H](NC(=O)c2ccc(F)cc2)[C@H](CO)O1	17.1	7.2
O=C(C[C@H]1CC[C@H]2[C@@H](COC[C@@H](O)CN2C(=O)c2cccnc2)O1)Nc1ccc(-c2ccccc2)cc1	-8.0	-7.9
C[C@@H]1CN([C@@H](C)CO)C(=O)CCCn2nncc2CO[C@H]1CN(C)S(=O)(=O)c1cn(C)cn1	8.6	7.9
CC=Cc1ccc2n(c1=O)C[C@H]1[C@H](CO)[C@@H](C(=O)OC)[C@@H]2N1S(=O)(=O)c1cccc(C)c1 (mixture of isomers)	0.9	8.5
COc1cccc(-c2cnc3c(c2)C(=O)N([C@H](C)CO)C[C@H](C)[C@H](CN(C)S(=O)(=O)c2cccs2)O3)c1	-13.8	-17.4
O=C(NCc1ccncn1)[C@H]1[C@H](CO)[C@H]2Cn3c(ccc(-c4ccccc4)c3=O)[C@H]2N1CC1CC1	-6.3	3.9
COC(=O)C[C@H]1CC[C@@H]2[C@H](COc3ccc(NC(=O)c4cccc(Cl)c4)cc3C(=O)N2C)O1	-7.4	-6.4
N#Cc1ccc(-c2ccc([C@@H]3[C@H]4CN(C(=O)C5CCCC5)CC(=O)N4[C@H]3CO)cc2)cc1	-17.7	-12.7
C[C@@H]1CN([C@H](C)CO)C(=O)Cc2cc(NC(=O)Cc3ccccc3)ccc2O[C@@H]1CN(C)Cc1ccc(C(=O)Nc2ccccc2N)cc1	27.1	2.5
COc1ccccc1CNC(=O)C[C@@H]1CC[C@H](NC(=O)CC2CC2)[C@@H](CO)O1	1.4	-2.6
Cc1ccccc1-c1ccc([C@@H]2[C@H]3CN(C(=O)c4cccnc4)CCCCN3[C@H]2CO)cc1	-19.3	-14.6
COc1ccc(-c2ccc([C@H]3[C@@H](C#N)N[C@@H]3CO)cc2)cc1	23.8	12.9
Cc1ccc(S(=O)(=O)N[C@@H]2CC[C@H](CC(=O)NCCN3CCCCC3)O[C@H]2CO)cc1	20.6	7.1
Cn1cnc(S(=O)(=O)N2C[C@H](O)COC[C@H]3O[C@@H](CC(=O)NCc4cc(F)cc(F)c4)CC[C@@H]32)c1	7.4	10.3
CC(=O)NC[C@@H]1[C@H](c2ccc(C3=CCCC3)cc2)[C@H](CO)N1C(=O)NC(C)C	15.8	13.1
N#C[C@H]1[C@H](c2ccc(C#Cc3ccc(F)cc3)cc2)[C@@H](CO)N1C(=O)C1CCCC1	?	·
CCCNC(=O)N1C[C@H](O)COC[C@@H]2O[C@H](CC(=O)N3CCC(Cc4ccccc4)CC3)CC[C@H]21	-33.1	-31.4
C[C@H]1C=C(C(=O)N2CCN(Cc3ccc4c(c3)OCO4)CC2)O[C@@H](OCCCCO)C1	17.3	5.4
CC(C)NC(=O)N[C@@H]1CC[C@@H](CCNC(=O)C2CCC2)O[C@H]1CO	2.4	2.1
O=C(C[C@H]1CC[C@H](NC(=O)Nc2cc(F)ccc2F)[C@@H](CO)O1)NCc1ccccn1	-10.2	-7.7
CO[C@@H]1CN(C)C(=O)c2cc(NC(C)=O)ccc2OC[C@H](C)N(Cc2ccncc2)C[C@H]1C	7.8	-1.9
C[C@@H]1CN([C@H](C)CO)C(=O)c2cc(C#CCN(C)C)cnc2O[C@H]1CN(C)C(=O)c1ccc2c(c1)OCO2	-2.1	-7.1
C[C@H]1CN([C@@H](C)CO)C(=O)c2cc(NC(=O)C3CC3)ccc2O[C@H]1CN(C)Cc1ccc(-c2ccccc2)cc1	-16.3	-2.2
C[C@@H]1CN([C@H](C)CO)C(=O)Cc2cc(NC(=O)Cc3ccccc3)ccc2O[C@H]1CN(C)Cc1ccccc1	-1.1	12.1
C[C@@H]1CN([C@H](C)CO)C(=O)Cc2cc(NC(=O)Nc3ccccc3)ccc2O[C@@H]1CN(C)S(=O)(=O)c1cn(C)cn1	10.4	2.0
Cc1noc(C)c1NC(=O)Nc1ccc2c(c1)C(=O)N([C@@H](C)CO)C[C@@H](C)[C@@H](CN(C)S(=O)(=O)c1ccc(F)cc1)OCCCC[C@@H](C)O2	14.0	5.8
CN(C[C@H]1N[C@@H](CO)[C@@H]1c1ccc(-c2cccc(F)c2)cc1)S(C)(=O)=O	-8.4	-11.7
Cc1noc(C)c1NC(=O)Nc1ccc2c(c1)CC(=O)N([C@@H](C)CO)C[C@H](C)[C@@H](CN(C)CC1CCCCC1)O2	0.7	-4.6
The list continues.
SMILES	Vaccinia inh	Vaccinia inh Venus
O=C(NCC[C@@H]1CC[C@@H](NC(=O)c2ccncc2)[C@@H](CO)O1)Nc1ccc(Cl)cc1	1.7	4.5
CN1C(=O)c2cc(NC(=O)C3CCOCC3)ccc2OC[C@H]2O[C@H](CC(=O)NCc3ccc4c(c3)OCO4)CC[C@@H]21	6.2	7.5
C[C@@H]1CN([C@H](C)CO)S(=O)(=O)c2ccc(C#Cc3ccc(F)cc3)cc2O[C@@H]1CN(C)C	?	·
O=C(C[C@H]1CC[C@@H]2[C@H](COC[C@H](O)CN2CC2CC2)O1)NCc1ccc(Cl)cc1	-9.5	3.8
Cc1ccc(S(=O)(=O)N(C)C[C@@H]2Oc3ccc(NS(=O)(=O)c4c(C)noc4C)cc3CC(=O)N([C@@H](C)CO)C[C@H]2C)cc1	-0.1	-13.4
C[C@@H]1CN([C@@H](C)CO)C(=O)c2cc(NS(=O)(=O)c3cn(C)cn3)ccc2O[C@@H]1CN(C)C(=O)Nc1ccc(C(F)(F)F)cc1	4.2	-3.1
O=C(O)[C@@]1(CCS(=O)(=O)c2ccccc2)COC(c2ccc(OCCCO)cc2)=N1	13.2	12.5
Cc1ccc(S(=O)(=O)Nc2ccc3c(c2)C(=O)N([C@H](C)CO)C[C@H](C)[C@H](CN(C)C(=O)Nc2ccc(F)cc2)O3)cc1	13.4	-1.1
COc1ccc(NC(=O)N(C)C[C@H]2Oc3c(NS(=O)(=O)c4cccs4)cccc3C(=O)N([C@@H](C)CO)C[C@H]2C)cc1	0.3	-2.2
C[C@@H]1CN([C@H](C)CO)C(=O)c2cccc(NC(=O)c3ccc(-c4nccs4)cc3)c2O[C@H]1CN(C)C(=O)Nc1ccccc1	14.2	0.1
CCN1[C@@H]2Cn3c(ccc(C4=CCCC4)c3=O)[C@H]1[C@@H](C(=O)N1CCc3ccccc3C1)[C@@H]2CO	-24.9	-17.7
C[C@@H]1CCCCO[C@@H](CN(C)S(=O)(=O)c2ccc(Cl)cc2)[C@@H](C)CN([C@H](C)CO)C(=O)c2cc(NC(=O)NC3CCCCC3)ccc2O1	8.7	11.7
O=C(c1ccncc1)N1C[C@H]2[C@@H](c3ccccc31)[C@@H](CO)N2C(=O)c1ccccn1	12.8	7.9
C[C@@H]1CN([C@H](C)CO)C(=O)c2cc(C#Cc3ccc(F)cc3)cnc2O[C@H]1CN(C)C(=O)Nc1ccc(F)cc1	?	·
C[C@@H](NC(=O)C[C@H]1CC[C@@H](NC(=O)c2cccnc2)[C@H](CO)O1)c1ccccc1	-1.5	0.7
C[C@H](CO)N1C[C@H](C)[C@@H](CN(C)Cc2ccc(-c3ccccc3)cc2)Oc2ccc(NS(=O)(=O)c3ccc(Cl)cc3)cc2C1=O	-12.9	-11.8
C[C@@H]1CN([C@@H](C)CO)C(=O)c2cc(NC(=O)CCCN(C)C)ccc2O[C@@H]1CN(C)C(=O)Nc1ccc2c(c1)OCO2	13.1	15.0
C[C@@H]1CCCCO[C@@H](CN(C)C(=O)C2CCCCC2)[C@H](C)CN([C@@H](C)CO)C(=O)c2cc(NC(=O)Nc3ccc(C(F)(F)F)cc3)ccc2O1	?	·
CO[C@@H]1CN(C)C(=O)c2ccc(NC(=O)C3CCOCC3)cc2OC[C@@H](C)N(CC2CCCCC2)C[C@H]1C	-5.9	-10.1
COc1ccc(S(=O)(=O)N2CC[C@H]3[C@H](CO)Nc4ccc(-c5cccc(C#N)c5)cc4[C@H]32)cc1	14.4	6.3

Three structures out of the list, arranged by count of non-hydrogen atoms, lowest first:
SMILES	Vaccinia inh	Vaccinia inh Venus
COc1ccccc1CNC(=O)C[C@@H]1CC[C@H](NC(=O)CC2CC2)[C@@H](CO)O1	1.4	-2.6
C[C@H]1C=C(C(=O)N2CCN(Cc3ccc4c(c3)OCO4)CC2)O[C@@H](OCCCCO)C1	17.3	5.4
CC(C)NC(=O)N(C)C[C@@H]1Oc2ccc(NC(=O)C3CCCCC3)cc2CC(=O)N([C@@H](C)CO)C[C@@H]1C	10.8	11.0

One compound at a time, as listed above:
O=C(c1ccncc1)N1C[C@H]2[C@@H](c3ccccc31)[C@@H](CO)N2C(=O)c1ccccn1 is listed with Vaccinia inh: 12.8; Vaccinia inh Venus: 7.9
CO[C@@H]1CN(C)C(=O)c2ccc(NC(=O)C3CCOCC3)cc2OC[C@@H](C)N(CC2CCCCC2)C[C@H]1C is listed with Vaccinia inh: -5.9; Vaccinia inh Venus: -10.1

Continued:
SMILES	Vaccinia inh	Vaccinia inh Venus
CNC(=O)C[C@H]1CC[C@@H]2[C@H](COc3ccc(NS(=O)(=O)c4ccccc4C)cc3C(=O)N2C)O1	-6.4	-14.6
C[C@H]1CCCCO[C@H](CN(C)C(=O)Nc2ccc3c(c2)OCO3)[C@@H](C)CN([C@@H](C)CO)C(=O)c2cc(NC(=O)Nc3ccccc3)ccc2O1	7.6	10.8
CO[C@@H]1CN(C)C(=O)c2ccc(NS(C)(=O)=O)cc2OC[C@H](C)N(CC2CCCCC2)C[C@@H]1C	4.9	-1.7
COC(=O)C[C@H]1CC[C@@H]2[C@@H](COc3ccc(NC(=O)Cc4cccs4)cc3C(=O)N2C)O1	2.5	5.0
C[C@@H]1CN([C@@H](C)CO)C(=O)c2cc(NC(=O)Nc3ccc(F)cc3)ccc2O[C@@H](C)CCCCO[C@@H]1CN(C)S(=O)(=O)c1ccccc1	28.4	17.7
Cc1ccc(S(=O)(=O)Nc2ccc3c(c2)C(=O)N([C@H](C)CO)C[C@H](C)[C@@H](CN(C)CC2CCCCC2)OCCCC[C@H](C)O3)cc1	?	·

In another format: entries from further up.
| compound | Vaccinia inh | Vaccinia inh Venus |
| --- | --- | --- |
| COC(=O)C[C@H]1CC[C@@H]2[C@@H](COc3ccc(NC(=O)Cc4cccs4)cc3C(=O)N2C)O1 | 2.5 | 5.0 |
| C[C@@H]1CN([C@@H](C)CO)C(=O)c2cc(NC(=O)Nc3ccc(F)cc3)ccc2O[C@@H](C)CCCCO[C@@H]1CN(C)S(=O)(=O)c1ccccc1 | 28.4 | 17.7 |
| Cc1ccc(S(=O)(=O)Nc2ccc3c(c2)C(=O)N([C@H](C)CO)C[C@H](C)[C@@H](CN(C)CC2CCCCC2)OCCCC[C@H](C)O3)cc1 | ? | · |

An excerpt (hit frequency here may not be typical).
